miR-21 FLuc – qHTS Assay for Modulators of miRNAs and/orActivators of miR-21. Potency, µM (titrated, usually from 38.3 µM), without a hit: top-dose reporter change, positive = more light. AID 2288, 2010. 340,000 tested, under 10 active. HeLa miR-21 FLuc reporter, luciferase, 48 h; active = well fitted rising curve with a large enough effect; inconclusive = small, poorly fitted or top-dose-only effect; inactive = no such curve, though single readings can be large or run the other way;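 note: % of control where 0% means no effect; miR-21 action dims this reporter so a rising signal means less miR-21 action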
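Compounds were titrated across several concentrations (up to approximately 40 uM) and incubated 48 hours with HeLa miR-21-FLuc reporter cells (miR-21 target sequence downstream of FLuc, endogenous miR-21). Readout was firefly luciferase luminescence after lytic detection reagent.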
Rango-impB inh – qHTS Assay for Inhibitors of Rango (Ran-regulated importin-beta cargo) - Importin beta complex formation; Potency, µM (titrated, usually from 92.2 µM), for inactives: at the top dose inhibition of complex formation; Importin subunit beta-1 (Homo sapiens), Q14974; 340,000 tested, 0.031% active; Rango CFP/YFP FRET sensor + importin beta, 45 min; active = rising FRET ratio curve, often small or poorly fitted; inconclusive = mostly compound fluorescence or quenching in the first reads; inactive = flat curves in all reads;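 note: potency is the fitted concentration of half-maximal effect; 0% = DMSO wells and 100% = buffer wells lacking importin beta; nearly all actives have a fitted effect of over 15% in size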
Target sequence (Q14974 whole entry, looked up): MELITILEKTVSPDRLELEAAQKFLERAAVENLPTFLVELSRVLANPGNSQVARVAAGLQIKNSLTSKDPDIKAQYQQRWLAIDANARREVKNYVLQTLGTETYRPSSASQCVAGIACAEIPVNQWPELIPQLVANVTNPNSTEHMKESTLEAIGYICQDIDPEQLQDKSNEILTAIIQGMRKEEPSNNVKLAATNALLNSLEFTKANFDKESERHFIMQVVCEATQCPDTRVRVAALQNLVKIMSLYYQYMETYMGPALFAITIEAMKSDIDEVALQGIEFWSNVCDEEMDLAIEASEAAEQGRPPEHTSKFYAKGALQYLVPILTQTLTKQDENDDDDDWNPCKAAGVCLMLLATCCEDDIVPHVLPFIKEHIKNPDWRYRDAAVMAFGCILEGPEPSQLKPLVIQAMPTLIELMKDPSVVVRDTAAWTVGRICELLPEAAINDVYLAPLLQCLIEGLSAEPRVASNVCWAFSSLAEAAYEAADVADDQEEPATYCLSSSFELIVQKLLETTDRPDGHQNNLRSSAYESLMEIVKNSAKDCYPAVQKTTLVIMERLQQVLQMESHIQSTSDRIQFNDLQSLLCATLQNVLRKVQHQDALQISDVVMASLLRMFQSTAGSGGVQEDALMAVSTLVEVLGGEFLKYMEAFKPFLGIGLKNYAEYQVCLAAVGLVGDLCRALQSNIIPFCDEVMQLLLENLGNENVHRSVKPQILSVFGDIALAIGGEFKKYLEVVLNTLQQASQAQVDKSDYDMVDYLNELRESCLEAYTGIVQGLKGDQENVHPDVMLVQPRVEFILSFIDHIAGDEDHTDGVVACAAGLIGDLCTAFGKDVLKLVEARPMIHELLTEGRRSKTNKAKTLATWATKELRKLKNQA
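FRET biosensor (snurportin 1 IBB flanked by EYFP and cerulean), 50 nM, with compound 5 min, then 0.125 microM importin beta in PBS, 1 mM DTT, 0.02% Tween-20, 0.1% BSA. CFP/YFP ratio read after 45 min at room temperature; pre-read flags interference.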
GLA inh pH 4.5 – qHTS Assay for Inhibitors of Human alpha-Galactosidase at pH 4.5. Alpha-galactosidase A (Homo sapiens), P06280. purified enzyme, 4-MU-alpha-Gal fluorescence, pH 4.5. activity change, negative = inhibition, % at 105 µM. 230,000 tested, under 10 active; inconclusive = small, poorly fitted or top-dose-only inhibition, or a rising curve; inactive = flat fitted curve, though single readings scatter; no compound was filed as active;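 note: 0% = full activity with enzyme and -100% = basal without enzyme; dose as in the result columns while the protocol names 77 µM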
Rango dissoc inh – qHTS Assay for Inhibitors of RanGTP induced Rango (Ran-regulated importin-beta cargo) - Importin beta complex dissociation | Snurportin-1 (Homo sapiens) + GTP-binding nuclear protein Ran (Homo sapiens) + Importin … | Biochemical FRET Rango-importin beta, RanGTP-induced dissociation | Potency, µM (doses to about 46.1 µM), for inactives: at the top dose activity change, negative = inhibition | 340,000 tested, 0.071% active; active means falling FRET ratio curve, often poorly fitted, with flat reads before Ran was added; inconclusive means other falling curves, or compound fluorescence or quenching; inactive means flat or rising ratio curve;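 note: potency is the fitted concentration of half-maximal effect; % of control where 0% means no effect; nearly all actives have a fitted effect of over 45% in size; -100% = wells without RanGTP and RCC1; the record marks most hits as doubtful in a second field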
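Rango FRET biosensor (snurportin-1 IBB flanked by N-terminal EYFP and C-terminal CFP10) at 0.1 uM, with 0.25 uM importin beta in PBS, 1mM DTT, 0.02% Tween-20, 0.1% BSA. 0.6 uM Ran, 2mM GTP and 0.2 uM RCC1 were then added for 45 min at room temperature. Inhibition read as loss of FRET rise.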
The depositor's hits bear a star; ? = inconclusive; / = not tested or not shown; & = joins results of further samples. Not all compounds are listed; the hit share may differ from the screen's.

Rango dissoc inh	miR-21 FLuc	Rango-impB inh	GLA inh pH 4.5	mol
-13%	-9%	?	/	CCOC(=O)CN1C(=O)S/C(=C/c2ccco2)C1=O
-6%	1%	-1.3%	6	C=CCOc1ccc(Br)cc1CNC(C)(C)C
?	-1%	?	-10	CCOc1cc(/C=C2/SC(=S)N(CC3CCCO3)C2=O)ccc1O (stereo not given)
3%	1%	5.6%	3	Cc1cc(=O)[nH]c(-n2ncc(C#N)c2N)n1
9%	19%	3.0%	7	COc1ccc(C(=O)/C=C/C(=O)N(CC(=O)NCCC(C)C)Cc2cccs2)c(O)c1
-11%	2%	-2.3%	4	NC(=O)Cn1cnc2nc3n(c2c1=O)CCC3
-3%	-30%	?	/	CC1CCN(C(=O)C2CCN(S(=O)(=O)c3cccs3)CC2)CC1
9%	-2%	0.0%	/	CC(NC(=O)c1ccc(F)cc1F)C1CC2CCC1C2 (stereo not given)
2%	-13%	?	/	CC1(C)Cc2c(sc(NC(=O)c3ccc(C(=O)c4ccccc4)cc3)c2C(N)=O)C(C)(C)N1
19%	/	-2.1%	/	CCN(C(=O)COC(=O)c1ccco1)c1c(N)n(Cc2ccccc2)c(=O)[nH]c1=O
-1%	2%	-3.7%	/	COc1ccc(CNC(=O)N2CCN(S(=O)(=O)c3ccccc3F)CC2)cc1
9%	-17%	2.4%	2	Cc1ccc(SCCC(=O)Nc2nccs2)cc1

Another view of two compounds above:
Every second line gives: Rango dissoc inh, miR-21 FLuc, Rango-impB inh, GLA inh pH 4.5
> CCN(C(=O)COC(=O)c1ccco1)c1c(N)n(Cc2ccccc2)c(=O)[nH]c1=O
 : 19%, /, -2.1%, /
> COc1ccc(CNC(=O)N2CCN(S(=O)(=O)c3ccccc3F)CC2)cc1
 : -1%, 2%, -3.7%, /

New compounds follow:
Rango dissoc inh	miR-21 FLuc	Rango-impB inh	GLA inh pH 4.5	mol
21%	0%	-4.1%	/	NC(=O)CN1C(=O)C(=O)N(Cc2ccc(F)cc2)C1=O
8%	16%	5.0%	3	c1ccc(Oc2nc(-c3ccccn3)nc3ccccc23)cc1
4%	0%	-5.5%	/	COc1cc(CC(=O)NC(c2ccccc2)c2ccccc2)cc(OC)c1OC
16%	0%	1.9%	-8	CC(=O)Cn1c(CN2CCCCC2)nc2ccccc2c1=O
3%	0%	-0.3%	-4	CCOC(=O)c1oc2ccc(Cl)cc2c1NC(C)=O
6%	-1%	2.2%	/	CCCn1c2ccccc2c2cnn(CC(=O)NC3CCC(C)CC3)c(=O)c21 (stereo not given)
8%	-5%	1.9%	/	CCc1nnc(NS(=O)(=O)c2ccc(NCc3cc(Br)ccc3O)cc2)s1
?	-5%	-1.1%	/	Cc1ccc(-n2c(SCC(=O)N3CCOCC3)nc(O)cc2=O)cc1
16%	/	-3.8%	/	O=C(NCC1(N2CCCCC2)CCCCC1)c1ccc(NS(=O)(=O)c2ccccc2)cc1
17%	9%	-2.6%	/	O=Cc1cn(-c2ccccc2)nc1-c1ccccc1
-9%	-18%	0.3%	/	S=C(NCCc1ccccc1)NCc1cccc(Cl)c1
?	/	?	/	CCN1C(=O)c2cccc3c(S(=O)(=O)N4CCNCC4)ccc1c23
15%	4%	-2.5%	0	N/C(=N\N=C/c1ccc(Br)cc1)N/N=C\c1ccc(Br)cc1
-10%	/	-0.3%	/	Cc1cc2oc(C(=O)N3CCN(Cc4ccccc4)CC3)c(C)c2cc1C
10%	18%	-0.7%	/	O=C(NCCc1cccc(C(F)(F)F)c1)C1CCC(=O)N(Cc2ccc(Cl)cc2)C1 (stereo not given)
-3%	-18%	-1.4%	5	CCCCNC(=O)CSc1nc2ccccc2n1S(=O)(=O)c1ccc(Cl)cc1
-4%	/	-0.2%	/	COc1ccc2nc(NC(=O)C3CC(=O)N(c4ccc5c(c4)OCCO5)C3)sc2c1 (stereo not given)
-2%	-6%	-6.1%	-2	Cc1nc2sc(C(c3ccco3)N3CCN(c4cccc(Cl)c4)CC3)c(O)n2n1 (stereo not given)
-9%	26%	0.2%	-4	COC(=O)c1cc(NC(=O)CC2SC(=Nc3ccccc3)N(CCc3c[nH]c4ccccc34)C2=O)cc(C(=O)OC)c1 (stereo not given)
16%	1%	?	5	COc1ccc(C(=O)Nc2c(N)nc(SCC(=O)N3CCCCCC3)[nH]c2=O)cc1OC
-10%	-5%	0.6%	-14	Cc1noc(C)c1COC(=O)CCc1nc2ccccc2s1
2%	-4%	1.7%	-10	CCc1ccc(Oc2nc([N+](=O)[O-])nn2C)cc1
6%	/	-0.5%	/	C[C@@]12C(=O)Nc3cc(F)c(F)cc3C(=O)N1[C@H]1c3ccccc3OC[C@@H]1[C@@H]2c1ccccc1
-8%	5%	-5.6%	-4	O=C(/C=C/c1ccco1)NC(=S)Nc1cccc([N+](=O)[O-])c1
25%	/	-1.0%	/	CCOc1ccc(S(=O)(=O)N2CCOCC2)cc1NC(=O)CN1C(=O)NC(C)(c2ccc(C)cc2)C1=O (stereo not given)
14%	24%	-6.5%	-6	CCOC(=O)Cc1cc(=O)n2[nH]c(C)c(-c3ccc(Cl)cc3)c2n1
-12%	-53%	-0.8%	4	CN1CCN(c2ccc(NC(=O)c3ccccc3Br)cc2)CC1
12%	0%	-1.0%	6	COc1cc2c(cc1O)[C@@H]1Cc3cc(OC)c(OC)cc3C(C2)N1C
5%	0%	4.6%	2	O=C(COc1ccc(Br)cc1)OCc1nnc(-c2ccccc2)o1
-13%	-12%	-0.1%	/	CCCc1c(C(=O)N/N=C/c2cccs2)nnn1-c1nonc1N
-9%	-6%	-0.9%	-2	Cc1cc(NC(=O)CSc2nnc(COc3ccccc3)o2)no1
0%	-27%	2.8%	0	O=S(=O)(Oc1ccc(Cl)cc1)c1cccc2cccnc12
-1%	-14%	2.2%	0	Cc1ccc(/C=C2/Sc3ccccc3N(CC(=O)NCCCOC(C)C)C2=O)cc1
-5%	/	0.4%	/	c1ccc(-n2nnc(-c3nccs3)n2)cc1
-3%	-2%	-0.3%	-7	Cc1n[nH]c(C)c1S(=O)(=O)N1CCCC(C(=O)NCC2COc3ccccc3O2)C1 (stereo not given)
6%	1%	-0.2%	-20	CCO[C@H]1OC(C(=O)NCc2ccccc2)=C[C@@H](c2ccc(C(F)(F)F)cc2)[C@@H]1CCCO
4%	/	-2.6%	/	COc1ccc2oc(C(=O)Nc3nc4ccc(S(C)(=O)=O)cc4s3)c(C)c2c1
7%	-3%	-5.7%	1	CCCc1cc(=O)oc2c(C)c3occ(C)c3cc12
1%	-1%	-2.6%	-12	CSCCC(NC(=O)c1ccc([N+](=O)[O-])cc1Cl)C(=O)OCC(=O)C12CC3CC(CC(C3)C1)C2 (stereo not given)
9%	0%	-5.3%	-9	COc1ccc(OC)c(CCNC(=O)Cn2cccc2C(=O)c2ccccc2C)c1
2%	-19%	-0.8%	/	COCC1CCN(C(=O)C2CCC(=O)N(Cc3cccc(C(F)(F)F)c3)C2)CC1 (stereo not given)
-8%	0%	-1.9%	/	O=S(=O)(Cc1nnnn1-c1ccc(Br)cc1)c1ccc(F)cc1
15%	-19%	1.3%	-3	O=C(Cc1cccc(C(F)(F)F)c1)NCc1ccc(Cl)cc1
-2%	/	-0.2%	3	CCCCC1C(=O)N(c2ccccc2)N(c2ccc(O)cc2)C1=O (stereo not given)
12%	12%&7%	-2.0%	/	CN1C(=O)Cc2cc(S(=O)(=O)N3CCN(c4cccc(C(F)(F)F)c4)CC3)ccc21
9%	20%	-1.9%	-1	O=C(N1CCCCC1)N1CCN(C(=O)N(c2ccccc2)c2ccccc2)CC1
1%	-16%	6.2%	-7	O=S(=O)(Nc1ccc(N2CCCCC2)cc1)c1ccccc1F
-1%	?	0.6%	/	COC1=C(N2CCOCC2)C(=O)c2ccccc2C1=O
-11%	0%	2.9%	-3	O=C(CCc1ccccc1)NC(=S)Nc1ccc2c(c1)C(=O)OC2
2%	-2%	0.7%	/	CSc1ccc(S(=O)(=O)N2CCC(C(=O)NCc3ccccn3)CC2)cc1
-1%	-1%	3.8%	/	Cc1c(NC(=O)c2ccccc2NC(=O)c2ccccc2)cccc1C(=O)O
2%	-3%	0.5%	15	Cc1ccc(NC(=O)CSc2nc(N)c(-c3ccccc3)c(=O)[nH]2)cc1Cl
-14%	-2%	0.7%	-10	CCOC(=O)Nc1nn(-c2ccc(C)cc2)c(=O)c(C#N)c1C
-10%	-4%	-0.3%	-1	O=C(c1ccco1)N1CCN(Cc2ccc(Cl)cc2)CC1
12%	27%	-1.3%	-6	COc1cccc(OCCCN2CCN(S(=O)(=O)c3ccc(NC(C)=O)cc3)CC2)c1
-14%	/	-0.1%	/	Cc1ccn2c(=O)nc(SCC(=O)Nc3ccc4c(c3)OCO4)nc2c1
8%	/	1.1%	/	N#Cc1ccccc1S(=O)(=O)N1CCN(C(=O)C2CCCCC2)CC1
9%	0%	0.1%	/	CN(C)C(=O)C(OC(=O)c1ccc2ccccc2n1)c1ccccc1 (stereo not given)
1%	2%	-1.6%	-6	COc1ccc(-c2c(C(F)(F)F)nn(C)c2NC(C)=O)cc1
0%	-5%	0.8%	/	CCc1cccc(C)c1NC(=O)Cc1ccsc1

Next structures follow.
Rango dissoc inh	miR-21 FLuc	Rango-impB inh	GLA inh pH 4.5	mol
-6%	1%	-0.7%	-5	Cc1cccc(NS(=O)(=O)c2cccc([N+](=O)[O-])c2)n1
-18%	-1%	0.9%	13	Cc1ccc2c(N)[nH]nc2n1
-22%	24%	-0.7%	4	CCCn1c2c(c(=N)c3c1CCC3)CCC2
1%	0%	-3.5%	-3	CCCCCn1c(Br)nc2c1c(=O)n(CC(N)=O)c(=O)n2C
?	-4%	5.4%	-8	CCCCNC(=O)/C(C#N)=C/c1ccc(F)cc1F
-1%	9%	-3.9%	6	CCc1ccc(-n2c(C)cc(/C=N/NC(=O)c3ccncc3)c2C)cc1
-5%	-71%	-1.5%	-7	COc1ccccc1OCc1cc(-c2ccccc2)no1
-3%	-3%	7.3%	2	CCc1ccc(OCCNC(=O)c2cc(SC)ccc2Cl)cc1
-3%	-1%	?	/	O=C(NNC(=O)C12CC3CC(CC(C3)C1)C2)c1cccc(O)c1
4%	/	1.0%	/	Cc1ccc(Sc2ccc(N)cc2C#N)cc1
0%	-5%	4.1%	-6	CC1=CC(C)(C)n2c(O)c(N=NC(N)=S)c3c(C)ccc1c32
7%	4%	4.9%	6	C=CCNc1nc(Cl)nc(Nc2ccc(OC)cc2OC)n1

For convenience, 3 of the compounds above:
Rango dissoc inh	miR-21 FLuc	Rango-impB inh	GLA inh pH 4.5	mol
-6%	1%	-0.7%	-5	Cc1cccc(NS(=O)(=O)c2cccc([N+](=O)[O-])c2)n1
-18%	-1%	0.9%	13	Cc1ccc2c(N)[nH]nc2n1
-22%	24%	-0.7%	4	CCCn1c2c(c(=N)c3c1CCC3)CCC2

(further entries)
Rango dissoc inh	miR-21 FLuc	Rango-impB inh	GLA inh pH 4.5	mol
-10%	-3%	?	-2	CCOC(=O)C1C(=O)NC(SCC(=O)Nc2nccs2)=C(C#N)C1c1ccccc1OCC (stereo not given)
-12%	-5%	-1.0%	2	CCOc1ccc(C)cc1S(=O)(=O)N1CCCCC1
14%	-32%	0.5%	/	CN1CCN(CCCOc2ccc(-c3ccccc3)cc2)CC1
11%	-4%	-1.1%	-2	C#CCn1c(=NC(=O)CN2C(=O)CCC2=O)sc2cccc(OC)c21
-5%	-2%	0.1%	-5	Cc1cc(C)c2c(-n3cccc3)c(C(=O)NNS(=O)(=O)c3ccc(Br)cc3)sc2n1
5%	-10%	2.6%	0	NS(=O)(=O)c1ccc(Nc2nc(-c3ccc(O)cc3)cs2)cc1
20%	-6%	0.0%	0	CCOc1ccccc1NC(=O)C1CCCN(S(=O)(=O)c2ccc(OC)c(C)c2)C1 (stereo not given)
